# Autofluor counter – counter-screen for toxin protease inhibitors: compound fluorescence; compound autofluorescence counterscreen, microsphere flow cytometry; hits give high values; fluorescence intensity (test concentration not listed); AID 624483; 360,000 tested, 3.1% active;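 active = at least 3 SD above the mean of all compounds, about 16000 in these data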;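 also: 100 nL of 1 mM stock went into each well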
# Numbers without * were called inactive. Not all compounds are listed (hit frequency here may not be typical).
# Start of the data: the first 15 entries, to show the layout:
SMILES,Autofluor counter
O=C(OCc1cn([C@@H]2CN(C(=O)C3CCCCC3)[C@@H](c3ccc(Cl)cc3)C[C@H]2O)nn1)c1ccccc1,3485
NC(CCc1ccccc1)c1csc(Nc2ccc(C(=O)NCCCO)cn2)n1 (centres undefined),2793
COc1ccc(-c2csc(C(O)c3ccc(F)c(OC)c3)n2)cn1 (centres undefined),3838
COc1cc2cc(OC(C)=O)c3cc4c(cc3c2c(OC)c1OC)OCO4,5955
CC1(C)OC(=O)C2=C(C[C@@H](CCOCc3ccccc3)O[C@H]2c2ccc(F)cc2)O1,4240
CCCCOCCCNC(=O)C[C@@H]1C[C@@]2(C(=O)OC)CCCCC=C2N(Cc2cccc3ccccc23)C1=O,5633
CCc1nc2c(OCCOc3ccccc3)cccn2c1N(C)C(=O)c1ccc(C)cc1,3444
COCCN1C[C@@H](CO)O[C@@H](n2cnc3c(N(C)C)ncnc32)C1,2797
CC(=O)Nc1ccc2sn(-c3ccccc3)c(=O)c2c1,7899
COCCNC(=O)C1(C)CCCN(C(=O)CCc2ccccc2)C1 (centres undefined),2778
NS(=O)(=O)c1ccc(CCNC(=O)CSc2nc3ccsc3c(=O)n2Cc2ccccn2)cc1,3617
CCOC(=O)C1(C)CCCN(C(=O)c2cccc3ccccc23)C1 (centres undefined),2844
COC(=O)[C@@]1(Sc2ccc(C)cc2)CC(=O)N[C@@H]1c1ccc(Br)cc1,5666
CN(CC(=O)Nc1ccc(Cl)c(C(F)(F)F)c1)S(=O)(=O)c1cnc[nH]1,2954
COC(=O)[C@]12CCCCC=C1N(Cc1ccco1)C(=O)[C@H](CC(=O)N1CCSCC1)C2,5951

# The listing (from the top)
SMILES,Autofluor counter
O=C(OCc1cn([C@@H]2CN(C(=O)C3CCCCC3)[C@@H](c3ccc(Cl)cc3)C[C@H]2O)nn1)c1ccccc1,3485
NC(CCc1ccccc1)c1csc(Nc2ccc(C(=O)NCCCO)cn2)n1 (centres undefined),2793
COc1ccc(-c2csc(C(O)c3ccc(F)c(OC)c3)n2)cn1 (centres undefined),3838
COc1cc2cc(OC(C)=O)c3cc4c(cc3c2c(OC)c1OC)OCO4,5955
CC1(C)OC(=O)C2=C(C[C@@H](CCOCc3ccccc3)O[C@H]2c2ccc(F)cc2)O1,4240
CCCCOCCCNC(=O)C[C@@H]1C[C@@]2(C(=O)OC)CCCCC=C2N(Cc2cccc3ccccc23)C1=O,5633
CCc1nc2c(OCCOc3ccccc3)cccn2c1N(C)C(=O)c1ccc(C)cc1,3444
COCCN1C[C@@H](CO)O[C@@H](n2cnc3c(N(C)C)ncnc32)C1,2797
CC(=O)Nc1ccc2sn(-c3ccccc3)c(=O)c2c1,7899
COCCNC(=O)C1(C)CCCN(C(=O)CCc2ccccc2)C1 (centres undefined),2778
NS(=O)(=O)c1ccc(CCNC(=O)CSc2nc3ccsc3c(=O)n2Cc2ccccn2)cc1,3617
CCOC(=O)C1(C)CCCN(C(=O)c2cccc3ccccc23)C1 (centres undefined),2844
COC(=O)[C@@]1(Sc2ccc(C)cc2)CC(=O)N[C@@H]1c1ccc(Br)cc1,5666
CN(CC(=O)Nc1ccc(Cl)c(C(F)(F)F)c1)S(=O)(=O)c1cnc[nH]1,2954
COC(=O)[C@]12CCCCC=C1N(Cc1ccco1)C(=O)[C@H](CC(=O)N1CCSCC1)C2,5951
CC1=C(C(=O)N(C(C)C)C(C)C)CC(CC(=O)NCCc2ccccn2)C(=O)N1CCCN1CCCC1=O (centres undefined),4860
C[C@H](CO)N1C[C@H](C)[C@H](CN(C)Cc2ccc(C(=O)O)cc2)OCc2ccccc2-c2c(n(C)c3ccccc23)C1=O,3821
CC(C)CC(N)c1csc(Nc2cc(Oc3ccccc3)ncn2)n1 (centres undefined),3655
CC1=C(C(=O)N(C(C)C)C(C)C)CC(CC(=O)NC2CC2)C(=O)N1Cc1ccc(C(C)(C)C)cc1 (centres undefined),5810
COc1ccc(-c2nc3ccc(Cl)cn3c2Cc2cccc(F)c2)cc1OC,9094
O=C(c1cccs1)N1C[C@@H](O)[C@H](n2cc(C3CC3)nn2)C[C@@H]1c1ccccc1,3400
Cn1cc(C=CC(=O)O)c2nccnc21,3783
CCc1cccc(CC)c1N1C(=O)C2=C(SCCCS2)C1=O,4184
O=C(Nc1ccc(N2CCOCC2)cc1)c1csc(COCCO)n1,3636
CC1(C(=O)NS(=O)(=O)c2ccc(F)cc2F)CCN1C(=O)C/C=C/c1ccccc1 (centres undefined),3430
CC1(C)N=C(N)N=C(N)N1c1ccc(OCC(=O)N2CCOCC2)cc1,3877
COc1ccccc1C(=O)Nc1nnc([C@@H]2C[C@H](O)[C@@H](CO)O2)s1,2834
Cc1noc(C)c1S(=O)(=O)N(C)C[C@H]1OCCCC[C@@H](C)Oc2ccc(NC(=O)CCCN(C)C)cc2C(=O)N([C@H](C)CO)C[C@@H]1C,3825
CCCC(=O)N1CCCC(c2cc(C(=O)Nc3ccc4c(c3)OCO4)no2)C1 (centres undefined),3014
C[C@@H]1CN([C@@H](C)CO)C(=O)CCCn2cc(nn2)CO[C@H]1CN(C)S(=O)(=O)c1cccc(F)c1,3561
CCCc1ccc(C(O)c2ncc(-c3cccc(OC)c3)[nH]2)cc1 (centres undefined),3423
CCOc1cccc(-c2cc(NCCc3ccccn3)n3nccc3n2)c1,2244
CC(=O)OC[C@@H]1CN(Cc2ccccc2)C[C@H](n2ccc3c(N)ncnc32)O1,2823
CCOC(=O)C1=CC[C@@H](c2ccccc2)N(S(=O)(=O)c2ccc(C)cc2)[C@H]1C#N,5429
CCCCCC(=O)N1C[C@@H](n2cc(-c3ccc(F)cc3)nn2)[C@H](O)C[C@@H]1c1ccccc1,3409
COCCNC(=O)C1(C)CCCN(C(=O)c2cccc(OC(F)(F)F)c2)C1 (centres undefined),3497
CC1(C(=O)NS(=O)(=O)c2ccc(Cl)s2)CCN1C(=O)C1(c2ccc(Cl)cc2)CC1 (centres undefined),3977
CCOC(=O)[C@]12Cc3cc(OC)ccc3[C@H]1N(C(C)C)C(=O)c1ccccc12,5725
O=C(NC(c1ccccc1)c1cnccn1)C1CCN(CCOc2ccc(Cl)cc2Cl)CC1 (centres undefined),3106
COC(=O)CCCn1cc(CN2CC(N3CCCCC3)CS2(=O)=O)nn1 (centres undefined),5244
Cc1cccc(S(=O)(=O)NC(=O)C2(C)CCN2C(=O)C2(c3ccc(Cl)cc3)CCC2)c1 (centres undefined),3689
COC(=O)C1=C(O)/C(=C/c2ccc(OCC(=O)Nc3ccc(OC)cc3)cc2)N=C1C,4047
CC(O)(c1cccc(F)c1)c1nc(-c2ccc(S(C)(=O)=O)cc2)cs1 (centres undefined),3919
O=C(NC1CCCCC1)N1Cc2cc(-c3ccccc3)ccc2-n2nncc2C1,6142
COc1ccc(S(=O)(=O)N2CCCOC2CNC(=O)C(=O)NCc2ccccc2C)cc1 (centres undefined),3752
Cc1ccc2c(=O)n3c(nc2c1)C(Cc1ccccc1)NC(=O)c1cc2ccccc2cc1-3 (centres undefined),3802
Cc1cc(C(O)c2ncc(-c3ccccc3Cl)[nH]2)ccc1F (centres undefined),3866
CC(=O)c1cccc(-c2cnc3c(NC=O)cc(-c4ccccc4Oc4ccccc4)cn23)c1,2973
CC1(C(=O)NS(=O)(=O)c2ccc(Br)cc2)CCN1C(=O)Cc1ccsc1 (centres undefined),3528
O=C(NCc1ccccc1)c1ccc([N+](=O)[O-])cc1,6364

# (listing goes on)
SMILES,Autofluor counter
CC(C)[C@H](NC(=O)c1ccccc1F)C(=O)Nc1cccc(S(=O)(=O)N2CCOCC2)c1,3828
COCOCCn1cc(CN2CCS(=O)(=O)N(Cc3ccc(-c4ccc(Cl)c(Cl)c4)cc3)C(C)C2=O)nn1 (centres undefined),3622
O=[N+]([O-])c1ccc2c(c1)CO[C@@]21O[C@H](CCO)C[C@H](O)[C@H]1O,4558
C[C@H](CO)N1C[C@H](C)[C@@H](CN(C)S(=O)(=O)c2ccccc2)OCc2cn(nn2)CCCC1=O,3351
COc1cccc(C(C)(O)c2nc(-c3cccs3)cs2)c1 (centres undefined),3561
CC(C)COC(=O)N(C)C[C@H]1OCc2cn(nn2)CCCC(=O)N([C@H](C)CO)C[C@@H]1C,2992
COc1ccccc1-c1cc(NC(C)=O)c2ncc(-c3ccc(F)cc3)n2c1,3186
COc1ccc(C(C)(O)c2nc(-c3ccc(Cl)cc3)cs2)cc1 (centres undefined),3620
CC(C)(C)OC(=O)NCCc1onc(-c2ccccc2F)c1C(=O)O,3533
Cc1c(-c2ccc(OCCN3CCCCC3)cc2)c(=O)oc2ccc3ccccc3c12,3790
Cn1c(SCC(=O)NC2CCCCC2)nnc1C(F)(F)F,3691
Cc1cc(F)ccc1C(O)c1ncc(-c2cccc3ccccc23)[nH]1 (centres undefined),3748
Cc1cnc(C=O)c2cccc([N+](=O)[O-])c12,4008
Cc1cccc(C)c1-n1nnnc1C1(C)CCC(=O)N1CCc1ccccc1F (centres undefined),6427
S=c1[nH]nc2ccc3ccccc3n12,5373
OC(Cc1ccccc1Br)c1ncc(-c2ccc(Cl)cc2)[nH]1 (centres undefined),4189
O=C(/C=C/[C@H]1O[C@@H](n2cnc3c(NC(=O)c4ccccc4)ncnc32)[C@H](O)[C@@H]1O)NCCCN1CCCC1=O,5579
O=C(c1cccc(-c2cncc3nccn23)c1)N1CCOCC1,3901
CC1(C)CC(=O)C2=C(C1)OC1=C(C(=O)CC(C)(C)C1)C2c1ccccc1Cl,4142
Cc1ccc(CNC(=O)Nc2nnc([C@H]3C[C@H](O)[C@@H](CO)O3)s2)cc1,2809
CN(C)CCNc1nc(Oc2cccc(F)c2)c2sccc2n1,4095
CC(=O)c1ccc(OC2(C)CCN(Cc3ccc(OC(F)(F)F)cc3)C2)cc1 (centres undefined),3676
O=C(Nc1c(-c2ccc3c(c2)OCO3)[nH][nH]c1=O)c1cnccn1,5687
COc1cccc(CCNC(=O)c2cc(COc3cccc(OC)c3)on2)c1,3636
COCCCn1cc(CN2CC(N3CCN(Cc4cccc(C)c4)CC3)CS2(=O)=O)nn1 (centres undefined),5994
COc1ccc2nc(N(CCN(C)C)C(=O)c3ccc4ncsc4c3)sc2c1,3829
C=CCN(c1ccccc1OC)S(=O)(=O)c1ccc(Cl)c(C(=O)NCc2ccco2)c1,3377
CCOC1=C2[C@H](c3cccc(Cl)c3)N(S(=O)(=O)c3ccc(C)cc3)C[C@H]2n2c(=O)n(-c3ccccc3)c(=O)n2C1,4095
CCc1ccc(C(O)c2ncc(-c3ccc(Cl)cc3)[nH]2)cc1 (centres undefined),3982
CN1CCCC(C)(C(=O)Nc2ccc3scnc3c2)C1 (centres undefined),3824
CCCS(=O)(=O)NC(=O)C1(C)CCN(C(=O)c2cc(OC)c(OC)c(OC)c2)C1 (centres undefined),3714
NS(=O)(=O)c1ccc(NC(=O)CCC(=O)O)cc1,5310
CCCCC[C@H](C)N1C[C@@H](COCc2ccccc2)Oc2cc(N3CCC[C@H]3CO)ccc2S1(=O)=O,5739
COCCCNC(=O)[C@H](Cc1ccccc1)NC(=O)CC[C@H]1O[C@@H](n2ccc(=O)[nH]c2=O)[C@H](O)[C@@H]1O,6250
c1ccc2c(C3OCC4(CCCCC4)CO3)cccc2c1,3423
COc1ccccc1-c1ccc([C@@H]2C[C@H]3[C@@H](CN2)CON3C)cc1,3793
C[C@H]1COc2cc(N3CCC[C@@H]3CO)ccc2S(=O)(=O)N1,5872
Cc1noc(C)c1C(=O)N1CCC1(C)C(=O)NS(=O)(=O)c1cccc(Cl)c1 (centres undefined),3848
COc1cc(OC)cc(-c2c(Sc3ccccc3)c3cc(-c4ccc5c(c4)OCCO5)ccc3n2C)c1,4162
O=C(NCc1cccs1)c1ccc2sc([C@H]3C[C@H](O)[C@@H](CO)O3)nc2c1,3065
Cc1cccc(-c2cnc3cccnn23)c1,3975
c1coc(-c2cnc3ccccc3n2)c1,3455
c1ccc2c(-c3nc4ccccc4[nH]3)cccc2c1,3446
COC(=O)C1=C(c2ccc(OCc3ccccc3)cc2)C[C@@H]2CC[C@H]1N2C(=O)NCCc1ccc(F)cc1,3981
COc1cccc(CN(C)C[C@H]2OCc3cnnn3CCCC(=O)N([C@@H](C)CO)C[C@@H]2C)c1,3553
Nc1ccccc1-n1nc2ccc3ccccc3c2n1,3620
C[C@H](CO)N1C[C@H](C)[C@@H](CN(C)C(=O)c2cc(-c3ccccc3)on2)OCc2cnnn2CCCC1=O,3983
CC(Sc1nnc(C(C)Oc2ccc(F)cc2)o1)C(=O)NCc1ccc2c(c1)OCO2 (centres undefined),3695
CN(C)c1ccc(N=Nc2nccs2)cc1,3851
O=P1(O)CC2=C(CC=CC2)C1,3470

# The list goes on.
SMILES,Autofluor counter
C[C@H]1CN([C@@H](C)CO)C(=O)c2cc(Br)cnc2O[C@H]1CN(C)C(=O)c1ccccn1,2931
CC1(C(=O)NCc2ccccc2)Cc2c(-c3ccc(C(N)=O)cc3)ccnc2O1 (centres undefined),3752
CC1(C(=O)NS(=O)(=O)c2ccc(C#N)cc2)CCN1C(=O)C1(c2ccc(Cl)cc2)CC1 (centres undefined),3831
Cc1noc(-c2ccccc2)c1NC(=O)Nc1ccc2nc([C@H]3C[C@H](O)[C@@H](CO)O3)[nH]c2c1,5775
N#CCC(=O)Nc1ccc(C(=O)OCC(=O)Nc2cc(-c3ccccc3)nn2-c2ccccc2)cc1,2972
N#Cc1cccc(NC(=O)c2cc(C3CCCCN3C(=O)c3ccc4c(c3)CCO4)on2)c1 (centres undefined),3798
O=S1(=O)CC(N2CCSCC2)CN1Cc1cn(Cc2cccc(C(F)(F)F)c2)nn1 (centres undefined),5170
CCCC(=O)N1CCCC(c2cc(C(=O)Nc3ccccc3)no2)C1 (centres undefined),3691
O=C(CCN1CCCO1)N1CCCC(Nc2cccc(F)c2)C1 (centres undefined),3929
C[C@H](CO)N1C[C@H](C)[C@@H](CN(C)S(=O)(=O)c2ccc(Cl)cc2)OCc2cnnn2CCCC1=O,2948
CC(=O)c1cc2cccc(OC3(C)CCN(Cc4ccc(-c5ccccn5)cc4)C3)c2o1 (centres undefined),3893
CN1CCCC1CN1CCCC1 (centres undefined),6209
CCCS(=O)(=O)NC(=O)C1(C)CCN(C(=O)c2cccs2)C1 (centres undefined),3360
CC1(Oc2cccc(F)c2)CCN(Cc2ccc(-c3ccccc3)o2)C1 (centres undefined),3810
O=C1OC(COCC#Cc2ccccc2)CN1c1ccccc1 (centres undefined),3626
O=C(C[n+]1cccc(C(=O)Nc2ccccc2)c1)c1ccccc1,6310

# Assay outcomes deposited in PubChem BioAssay by NMMLSC.
